HSD17B inhib – qHTS Assay for Inhibitors of HSD17B4, hydroxysteroid (17-beta) dehydrogenase 4. 3-hydroxyacyl-CoA dehydrogenase type-2 (Homo sapiens), Q99714. recombinant HSD17B10, NADH fluorescence kinetic; many of its hits are not listed in these tables. Potency, µM (highest dose often 57.1 µM), without a hit: at the top dose activity change, negative = inhibition, hits mostly inhibitors. actives 7.6% (n = 75,000); active = well fitted inhibition curve with a large enough effect; inconclusive = small, poorly fitted or top-dose-only effect; inactive = no such curve, though single readings can be large or run the other way;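 note: the protocol describes HADH2 (HSD17B10) and not the HSD17B4 of the title; nearly all actives have a fitted effect of over 70% in size; most hits overshoot -100% by far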
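Enzyme plus compound, 15 min room temperature; substrate mix added (NAD+ 1 mM, beta-hydroxybutyryl-CoA 90 uM final); plates read kinetically for NADH fluorescence. HADH2 was His-tagged, E. coli-derived, 20 nM.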
Starred values were filed as active, the others as inactive; u = inconclusive; [ ] = another dose, or the depositor's remark. % is set by controls: 0 for no effect and ±100 for the full control effect; potency is the fitted concentration of half-maximal effect. Not all compounds are listed. The share of hits here may be higher or lower than overall.

SMILES | HSD17B inhib
COc1ccc(C)cc1NC(=O)C1CCCN1C(=O)OCc1ccccc1 (centres undefined) | -1%
O=C(OC1CCOC1=O)c1ccc(S(=O)(=O)N2CCCCCC2)cc1 (centres undefined) | -2%
Cn1c(=O)cc(SCC(=O)NCCCN2CCN(c3ccccc3F)CC2)c2ccccc21 | -4%
O=S(=O)(Cc1ccccc1)NCC1CCCO1 (centres undefined) | -5%
CC(C)(NO)/C(=N/O)c1ccc(Br)cc1 | -1%
O=C(NCCCN1CCOCC1)c1cc2ccccc2oc1=O | 32µM*
COc1cc2c(cc1OC)C(c1ccccc1)N(C(=O)c1ccco1)CC2 (centres undefined) | 2%
O=C(NC1CCCCCC1)C1C2C=CC3(CN(Cc4cccnc4)C(=O)C13)O2 (centres undefined) | 2%
COc1cccc(/C=N/n2c(C)nc3ccccc3c2=O)c1O | 0%
CCOC(=O)C1CCN(C(=O)c2sc3nc(-c4ccccc4)cn3c2C)CC1 | 1%

Quoted at random: 4 compounds from above, in no set order.
SMILES | HSD17B inhib
O=C(NCCCN1CCOCC1)c1cc2ccccc2oc1=O | 32µM*
COc1ccc(C)cc1NC(=O)C1CCCN1C(=O)OCc1ccccc1 (centres undefined) | -1%
Cn1c(=O)cc(SCC(=O)NCCCN2CCN(c3ccccc3F)CC2)c2ccccc21 | -4%
COc1cc2c(cc1OC)C(c1ccccc1)N(C(=O)c1ccco1)CC2 (centres undefined) | 2%

Continuation.
SMILES | HSD17B inhib
CCOC(=O)c1oc2c(C)c(O)ccc2c(=O)c1-c1nncn1-c1ccccc1 | 3%
COc1ccc(CCNC(=O)CSc2nnc(CNC(=O)c3ccco3)o2)cc1OC | 2%
COC(=O)c1ccccc1NC(=O)CN1CCN(C23CC4CC(CC(C4)C2)C3)CC1 | -3%
CC(C)c1nc(N2CCOCC2)c(C#N)c2c1CCCC2 | 32µM*
CCCCOc1ccccc1C1NC(=O)NC(C)=C1C(=O)OCc1ccco1 (centres undefined) | 0%
CN1C(=O)C(O)(CC(=O)c2ccc3c(c2)OCO3)c2ccccc21 (centres undefined) | 9%
CCCOc1ccc(/C(O)=C2\C(=O)C(=O)N(CCCN(C)C)C23C(=O)N(C)c2ccccc23)cc1 (centres undefined) | -4%
O=C(CCN1C(=O)C2CC=CCC2C1=O)N1CCN(c2ccccn2)CC1 (centres undefined) | u
O=[N+]([O-])c1ccc(Cl)cc1Cl | -3%
Cc1ccc(S(=O)(=O)N(C)CC(=O)Nc2ccncc2)cc1 | 8%
COc1cccc(CN2CCCC(C(=O)N3CCCCC3)C2)c1OC (centres undefined) | 15%
COCCn1c(=O)c(C)nc2cnc(Nc3cccc(OC)c3)nc21 | 5%
CCn1c(SCC(=O)c2ccc(C)cc2)nnc1-c1ccoc1C | -7%
CCOC(=O)c1cccc(NC(=O)CNS(=O)(=O)c2cccs2)c1 | 7%
CCN(CC)c1ccc(C2C(C(=O)OC)=C(C)NC(C)=C2C(=O)OC)cc1 | 127%[activator]
CN(CC(=O)NCc1ccco1)S(=O)(=O)c1cccc2cccnc12 | -5%
Cc1ccc(C)c(N(C)S(=O)(=O)c2cccc3nsnc23)c1 | -5%
O=C(Nc1cccc(Cl)c1)N(CCCN1CCOCC1)Cc1ccccc1F | 2%
Cc1cc(NC(=O)CN2CCC(O)(c3cccc(F)c3)CC2)no1 | -1%
COc1ccc(-n2nc3ccccc3n2)cc1 | -6%
COc1ccc(-c2nnc(CSc3nnc(-c4ccncc4)n3C3CCCCC3)o2)cc1OC | 7%
COC(=O)[C@@]1(Cc2ccc(F)cc2)[C@H]2c3cc(C(=O)N(C)C)n(Cc4ccc(C(F)(F)F)nc4)c3C[C@H]2CN1C(=O)c1ccccc1 | 0%
CCCOC(=O)CCNc1n[nH]c(=O)[nH]c1=O | 12%
CCC(C)NC(=O)CSc1nnc(-c2ccc(C(C)(C)C)cc2)n1C (centres undefined) | 7%
Cn1c(=O)oc2cc(S(=O)(=O)NCCC(=O)N3CCc4ccccc43)ccc21 | -23%
O=C(O)c1cccc(C(=O)O)c1S(=O)Cc1ccccc1 (centres undefined) | 8%[11.4 µM]
N#C/C(=C1/CCCCCN1)c1nnc2n1CCCCC2 | 130%[activator]
COc1ccccc1OCc1ccc(C(=O)Nc2ccncc2)o1 | -2%
CNCC[C@H](Oc1ccccc1OC)c1ccccc1 | -6%
COc1cc(Cl)c(C)cc1NC(=O)CSC | 1%

Grouped by structure, the entries above containing an aryl thioether with sulfur outside any ring
SMILES | HSD17B inhib
Cn1c(=O)cc(SCC(=O)NCCCN2CCN(c3ccccc3F)CC2)c2ccccc21 | -4%
COc1ccc(CCNC(=O)CSc2nnc(CNC(=O)c3ccco3)o2)cc1OC | 2%
CCn1c(SCC(=O)c2ccc(C)cc2)nnc1-c1ccoc1C | -7%
COc1ccc(-c2nnc(CSc3nnc(-c4ccncc4)n3C3CCCCC3)o2)cc1OC | 7%
CCC(C)NC(=O)CSc1nnc(-c2ccc(C(C)(C)C)cc2)n1C (centres undefined) | 7%

Additional structures follow.
SMILES | HSD17B inhib
Cc1cc(C)c2cc(CN(CCO)C(=O)Nc3ccc(Cl)cc3)c(=O)[nH]c2c1 | -118%
O=S(=O)(Cc1ccccc1)N1CCCC1 | 4%
CCOC(=O)CSc1nnc(CNC(=O)c2cc(OC)c(OC)c(OC)c2)n1C | 4%
COC(=O)c1cc(-c2c(C)oc3cc(O)ccc3c2=O)c(C)o1 | 32µM*
O=C(NCC(c1cccnc1)N1CCN(c2ccc(F)cc2)CC1)c1ccc(F)cc1 (centres undefined) | -8%
CCn1c(SCC(=O)Nc2cc(NC(C)=O)ccc2OC)nnc1-c1ccccn1 | 3%
O=C(COc1ccccc1)Nc1ccc(S(=O)(=O)NCc2ccco2)cc1 | 0%
CCOC(=O)CSc1nc2cc(C(=O)NCC3CCCO3)ccc2c(=O)n1Cc1ccco1 (centres undefined) | 6%
COc1ccc(N2CCN(CCNC(=O)CCS(=O)(=O)c3cccc4nsnc34)CC2)cc1 | 0%
CCC(=O)N1CCN(c2ccc(NC(=O)c3cc4ccccc4o3)cc2Cl)CC1 | 25µM*
CCCCC(=O)N(c1ccc(C)c(C)c1)C1C=CS(=O)(=O)C1 (centres undefined) | -2%
Cn1c(=O)[nH]c(=O)c2c1nc(N1CCCCCC1)n2CCSc1nc2ccccc2[nH]1 | 1%
Cc1ccc(S(=O)(=O)N[C@@H]2COC(=O)C/C=C\[C@H](C)COC(=O)N[C@@H](C)C(=O)C/C=C\[C@H]2C)cc1 | 6%[11.4 µM]
CC(=O)N(CC1CCCO1)C1(C(=O)NC2CCCC2)CCCCC1 (centres undefined) | 12%
Cc1cccc(C(=O)NC2CCN(CC(=O)N3CCOCC3)CC2)c1 | 1%
O=C1C=C(Nc2nc(C(=O)O)cc(=O)[nH]2)c2ccccc2C1=O | 3%[11.4 µM]
CC(=O)NC(CCS(C)(=O)=O)C(=O)Nc1cccc2ccccc12 (centres undefined) | 10µM*
CC(C)Nc1nc(NC(C)C)nc(Oc2ccc(/C=N/O)cc2)n1 | 2%
COC(=O)C1=C(C)NC(C)=C(C(=O)OCCN(C)Cc2ccccc2)C1c1cccc([N+](=O)[O-])c1 (centres undefined) | 1%
Cc1ccc(S(=O)(=O)NCC(=O)N(CC(=O)NCc2ccccc2)CC2CCCO2)cc1 (centres undefined) | 10%
CCc1ccccc1N(CC)C(=O)c1cn(CC)c(=O)c2cc(OC)c(OC)cc12 | -3%
O=C(NCc1ccc2c(c1)OCO2)c1cccs1 | -4%
Cc1ccc(Nc2nc(N)nc(CN3CCN(c4ccccc4F)CC3)n2)cc1 | -10%
CCC(=O)N1CCN(C(=O)CC)C1c1ccccc1 | -4%
Cc1cc(C)n2cc(CSC3=NCCS3)nc2n1 | 32µM*
CS(=O)(=O)N1CCN(CC2CC3C=CC2C3)CC1 (centres undefined) | 2%
C=CCc1ccccc1OCC(O)CN(C(C)C)C(C)C (centres undefined) | 4%
CCn1cc(C(=O)N2CCN(C(=O)c3ccco3)CC2)c2cc(OC)c(OC)cc2c1=O | -5%
O=c1/c(=C/c2ccco2)sc2nc(-c3ccccc3Br)nn12 | -28%
Cn1c(=O)c2c(ncn2CC(O)CNc2ccc(Br)cc2)n(C)c1=O (centres undefined) | -12%

Next section; it opens with the 3 that closed the last part.
SMILES | HSD17B inhib
CCn1cc(C(=O)N2CCN(C(=O)c3ccco3)CC2)c2cc(OC)c(OC)cc2c1=O | -5%
O=c1/c(=C/c2ccco2)sc2nc(-c3ccccc3Br)nn12 | -28%
Cn1c(=O)c2c(ncn2CC(O)CNc2ccc(Br)cc2)n(C)c1=O (centres undefined) | -12%
CCOC(=O)c1ccccc1NC(=O)Cn1cnc2c(cnn2-c2ccc(OC)cc2)c1=O | -24%
CCC(C)[C@H](NC(=O)Nc1cccc(OC)c1)C(=O)OC (some centres undefined) | 1%
CN(C)c1ccc(-c2cc(NCc3cccnc3)ncn2)cc1 | 25µM*
CC(C)C12CN3CC(C(C)C)(CN(C1)C3c1ccc3c(c1)OCO3)C2=O (centres undefined) | 4%
O=c1n(-c2ccccc2)c(=O)n2n1CC[C@H]1/C(=N\OCc3ccccc3)[C@H]3O[C@@H]3[C@@H](O)[C@@H]12 | 5%[11.4 µM]
O=C(Nc1ccccc1N1CCN(c2ccccc2)CC1)c1cccc(F)c1 | -2%
O=C(c1ncc[nH]1)c1ccco1 | -7%
Cc1ccc(-n2c(CSc3nc(C)cc(C)n3)nnc2SCC(=O)NCc2ccco2)cc1 | -5%
CC(C)CNS(=O)(=O)c1ccc(CCC(=O)O)cc1 | 0%
CN1CCN(C(=O)c2ccccc2NC(=O)c2cccs2)CC1 | 7%

4 structures out of the list, arranged by molecular weight, smallest number first:
SMILES | HSD17B inhib
O=C(c1ncc[nH]1)c1ccco1 | -7%
CC(C)CNS(=O)(=O)c1ccc(CCC(=O)O)cc1 | 0%
CN(C)c1ccc(-c2cc(NCc3cccnc3)ncn2)cc1 | 25µM*
CC(C)C12CN3CC(C(C)C)(CN(C1)C3c1ccc3c(c1)OCO3)C2=O (centres undefined) | 4%

Following part.
SMILES | HSD17B inhib
S=c1nc(-c2ccccc2)n(CCN2CCOCC2)c2c1CCCC2 | -3%
COc1cccc2cc(C(=O)Nc3cccc(C)n3)c(=O)oc12 | 1%
CCOCCn1c(N2CCN(c3ccccc3)CC2)nc2c1c(=O)n(C)c(=O)n2C | 1%
COc1ccc(C2C(C(=O)Nc3ccccc3)=C(C)Nc3nc(CCCO)nn32)cc1 (centres undefined) | 3%
Cc1ccc(-c2nnc3c4ccccc4c(C)nn23)cc1NC(=O)c1ccco1 | u
CCOc1ccc(CCNC(=O)C2CCCN(S(=O)(=O)c3c(C)n[nH]c3C)C2)cc1OCC (centres undefined) | 2%
O=C(CCCc1cccs1)Nc1nc2c(s1)CCCC2 | -16%
O=c1[nH]c2ccccc2c2ccccc12 | 16%
O=S(=O)(NC1CCCCC1)c1cccc(-c2nnc(-c3ccccc3)o2)c1 | -10%
COC(=O)CN1C(=O)C2(C(C#N)=C(N)Oc3n[nH]c(-c4cccs4)c32)c2ccccc21 (centres undefined) | -1%
CCSc1nc2ccccc2n1CC(=O)OC | 12%
c1ccc(OCCCn2nnc(-c3ccc(N4CCOCC4)cc3)n2)cc1 | -11%
O=S(=O)(c1ccc(Nc2ccc3c(c2)OCO3)nc1)N1CCOCC1 | -7%
CCOC(=O)N/N=C1/C[C@@H](O)[C@@H](O)[C@@H]2[C@@H]3C(=O)N(Cc4ccccc4)C(=O)[C@H]3CC[C@H]12 | -2%[11.4 µM]
O=C(O)c1cc(C(=O)O)nc(C(=O)O)c1 | 4%[11.4 µM]
O=S(=O)(Nc1ccc(S(=O)(=O)N2CCCCC2)cc1)c1ccc(Br)s1 | -7%
O=C(c1ccc(CS(=O)(=O)c2ccc(Br)cc2)o1)N1CCN(c2ccccn2)CC1 | -1%
NC(CC(=O)OC1CCCCC1)C(=O)OC1CCCCC1 (centres undefined) | 3%
CCCn1c(=O)c2ccccc2n2c(SCc3nnc(-c4ccccc4Br)o3)nnc12 | -2%
CCOC(=O)c1ccc(Nc2nc(C)cc(C)c2C#N)cc1 | 32µM*
O=C(O)C1CC=CCC1C(=O)Nc1cccc(C(=O)N2CCCCC2)c1 (centres undefined) | -4%
O=C(Nc1nc2c(s1)CCCC2)C1COc2ccccc2O1 (centres undefined) | 2%
O=C(O)c1oc2ccc(Br)cc2c1-n1cccc1 | -19%
CC(=O)OC(C(=O)NC1CCCCC1)c1ccc(C)cc1 (centres undefined) | 4%
Cc1cc(C(=O)OCC(=O)NCCc2ccccc2)c(C)o1 | 12%
O=C(c1cc(-c2ccc3c(c2)OCO3)on1)N1CCOCC1 | 5%
COc1ccc(C)cc1S(=O)(=O)N(CC(=O)N1CCCC1)c1ccccc1 | 7%
O=C(NC1CSC/C1=N\O)c1ccccc1 (centres undefined) | 4%
CCOC(=O)c1c(-c2cccs2)csc1NC(=O)CSc1ncn[nH]1 | u
CCCOc1ccc(/C(O)=C2\C(=O)C(=O)N(CCCOC)C23C(=O)N(C)c2ccccc23)cc1 (centres undefined) | -1%
CCN(CC)P1(=O)OC(c2cc(OC)c(OC)c(OC)c2)=Nc2c1c(C)nn2-c1ccccc1 (centres undefined) | 7%
C=Cc1ccc(C=C)cc1 | 0%
CC(Sc1nnnn1C)C(=O)Nc1ccc(Oc2ccccc2)cc1 (centres undefined) | -7%
CCNCCCNCCCCNCCCNCC | 2%
CC1CCCCN1S(=O)(=O)c1ccc(S(=O)(=O)N2CCN(c3ccc(F)cc3)CC2)cc1 (centres undefined) | 14%
Cc1sc2ncnc(OCC(=O)N3CCN(S(=O)(=O)c4ccc(Cl)cc4)CC3)c2c1C | -3%
Cc1nc(=O)cc(-c2ccccc2)n1-c1ccccc1 | 13%
CCOC(=O)c1[nH]c2ccc(OC)cc2c1NS(=O)(=O)c1ccc(OC)cc1OC | u
